Autofluor counter – compound fluorescence in toxin protease inhibitor counterscreen; compound autofluorescence counterscreen, microsphere flow cytometry; stronger effect = higher value; fluorescence intensity (test concentration not listed); 3.1% of 360,000 active;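 active = at least 3 SD above the mean of all compounds, about 16000 in these data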;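 also: 100 nL of 1 mM stock went into each well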
The depositor's hits bear a star. An excerpt; rates above refer to the full screens.

SMILES	Autofluor counter
Cc1ccc(Cc2c(-c3ccc(F)cc3)nc3ccc(Br)cn23)cc1	5768
CC1(C(=O)NS(=O)(=O)c2ccc(Cl)cc2)CCN1C(=O)C1(c2ccc(Cl)cc2)CC1 (centres undefined)	3541
NC(=S)NN=Cc1ccc(OC(=O)COc2cc(Cl)c(Cl)cc2Cl)cn1	3767
CC(C)C(=O)N1CCCC1(C)C(=O)NCc1ccc(Cl)cc1 (centres undefined)	3991
CN1CCN(C(=O)C[C@H]2C[C@H]3c4cc(NC(=O)NC5CCCCC5)ccc4O[C@H]3[C@@H](CO)O2)CC1	2687
CCOC(=O)C1(C)CCCN1C(=O)c1ccc(C(F)(F)F)nc1C (centres undefined)	3847
Cc1cc(C)cc(CC(=O)N2CCC2(C)C(=O)NS(=O)(=O)c2cc(C)ccc2F)c1 (centres undefined)	2885
CC(=O)Nc1cccc(-c2ccnc3c2CC(C)(C(=O)NCc2ccc(F)c(F)c2)O3)c1 (centres undefined)	3024
COc1ncnc2c1ncn2CCCN1CCN(Cc2ccc(C)cc2)CC1	2965
COc1cc(CNC(=O)c2cc(-c3cc(F)ccc3OC(C)C)n[nH]2)cc(OC)c1	3706
COc1ncc(-c2ccc(N3C(c4ccc([N+](=O)[O-])cc4)=Cc4ccccc4C3CC(C)=O)cc2)cn1 (centres undefined)	6166
CCOc1ccc(-n2c(C)c3c(C)nnc(C)c3c2C)cc1	4275
Cc1cc(C)cc(CC(=O)N2CCC2(C)C(=O)NS(=O)(=O)Cc2ccccc2)c1 (centres undefined)	3897
CC1(C(=O)NS(=O)(=O)C2CC2)CCCN(C(=O)Cc2ccc3ccccc3c2)C1 (centres undefined)	3117
CC(C)C[C@@H](COCc1ccc([N+](=O)[O-])cc1)N1CCN(C(=O)c2ccc(C(F)(F)F)cc2)CCC1=O	5708
CCOC1=C2CN(S(=O)(=O)c3ccc(C)cc3)[C@H](c3ccccc3)C[C@@H]2N(S(=O)(=O)c2ccccc2C)[C@H](c2ccccc2)C1	6709
O=C(O)c1ccc([N+](=O)[O-])nc1	2918
CCCS(=O)(=O)NC(=O)C1(C)CCN(C(=O)c2ccc(C(F)(F)F)nc2C)C1 (centres undefined)	3439
CC(O)(c1cccc(F)c1)c1nc(-c2cccc3cccnc23)cs1 (centres undefined)	2940
CCOC(=O)C1(C)CCCCCN1C(=O)c1ccccc1F (centres undefined)	2729
Cc1ccc(Cn2c(C)c(C(=O)NCc3cccs3)sc2=O)cc1	5448
CC1(C(=O)Nc2ccccc2F)CCN1C(=O)Cc1cc(F)ccc1F (centres undefined)	2719
c1ccc2c(-c3ccc4nncn4c3)cncc2c1	3334
COc1ccccc1CNc1nc(Oc2cccc(F)c2)c2sccc2n1	2828
CC1(C(=O)NS(=O)(=O)c2ccccc2)CCN1C(=O)C1(c2ccccc2)CCCC1 (centres undefined)	3888

Part of the list above in order of SMILES length, ascending.
SMILES	Autofluor counter
O=C(O)c1ccc([N+](=O)[O-])nc1	2918
CCOC(=O)C1(C)CCCCCN1C(=O)c1ccccc1F (centres undefined)	2729
CCOc1ccc(-n2c(C)c3c(C)nnc(C)c3c2C)cc1	4275
CC(C)C(=O)N1CCCC1(C)C(=O)NCc1ccc(Cl)cc1 (centres undefined)	3991
Cc1ccc(Cn2c(C)c(C(=O)NCc3cccs3)sc2=O)cc1	5448
CC(O)(c1cccc(F)c1)c1nc(-c2cccc3cccnc23)cs1 (centres undefined)	2940
Cc1ccc(Cc2c(-c3ccc(F)cc3)nc3ccc(Br)cn23)cc1	5768
CC1(C(=O)NS(=O)(=O)C2CC2)CCCN(C(=O)Cc2ccc3ccccc3c2)C1 (centres undefined)	3117
CC1(C(=O)NS(=O)(=O)c2ccccc2)CCN1C(=O)C1(c2ccccc2)CCCC1 (centres undefined)	3888
Cc1cc(C)cc(CC(=O)N2CCC2(C)C(=O)NS(=O)(=O)c2cc(C)ccc2F)c1 (centres undefined)	2885
COc1ncc(-c2ccc(N3C(c4ccc([N+](=O)[O-])cc4)=Cc4ccccc4C3CC(C)=O)cc2)cn1 (centres undefined)	6166
CN1CCN(C(=O)C[C@H]2C[C@H]3c4cc(NC(=O)NC5CCCCC5)ccc4O[C@H]3[C@@H](CO)O2)CC1	2687
CC(C)C[C@@H](COCc1ccc([N+](=O)[O-])cc1)N1CCN(C(=O)c2ccc(C(F)(F)F)cc2)CCC1=O	5708
CCOC1=C2CN(S(=O)(=O)c3ccc(C)cc3)[C@H](c3ccccc3)C[C@@H]2N(S(=O)(=O)c2ccccc2C)[C@H](c2ccccc2)C1	6709

Next results:
SMILES	Autofluor counter
CN(CCN1CCOCC1)C(=O)C1CCC(=O)N(Cc2ccc(Cl)cc2)C1 (centres undefined)	2972
COc1ccc(C(NC(=O)C2CCN(Cc3cc(OC)cc(OC)c3)CC2)c2ccccn2)cc1 (centres undefined)	3982
CCCCN1CC(N2CCN(Cc3ccccc3)CC2)CS1(=O)=O (centres undefined)	5988
CC(O)(c1cccc(F)c1)c1nc(-c2cccc(C#N)c2)cs1 (centres undefined)	2969
C/C(NCCc1ccccc1)=C1/CCOC1=O	3885
COc1ccc(S(=O)(=O)N(C)C[C@@H]2OCc3cnnn3CCCC(=O)N([C@H](C)CO)C[C@@H]2C)cc1	3836
COC(=O)C1=C(c2ccc(OCc3ccccc3)cc2)C[C@@H]2CC[C@H]1N2C(=O)NCc1ccc2c(c1)OCO2	3311
CCCCNC(=O)C1(C)CCC(=O)N1c1cc(C(C)(C)C)nn1C (centres undefined)	5842
CN(Cc1ccccc1)C(=O)[C@@H]1CCCN1C(=O)[C@@H]1CCCN1C(=O)c1c(F)cccc1F	5721
CC(C)C[C@@H]1COc2cc(N3CCC[C@H]3CO)ccc2S(=O)(=O)N1	5076
COc1ccc(Cc2nc3ccc(C(=O)NC4CCOC4)cc3o2)cc1OC (centres undefined)	2975
COc1cc(C(=O)c2cc3c(cc2C)OCO3)cc(OC)c1OC	4676
C[C@@H]1CN([C@@H](C)CO)C(=O)c2cc(NC(=O)c3ccccc3)ccc2O[C@@H](C)CCCCO[C@@H]1CN(C)Cc1ccc(C(F)(F)F)cc1	2832
COc1cccc(-c2cnc3c(NC(C)=O)cc(-c4cccc(NS(C)(=O)=O)c4)cn23)c1	3484
CC(=O)C1=CCC(c2ccccc2Cl)N(S(=O)(=O)c2ccc(C)cc2)C1 (centres undefined)	4334
CC(=O)N1Cc2cc(C(=O)NCC(F)(F)F)nc(-c3cccc(-c4cc5ccccc5o4)c3)c2[C@H]1CCO	6063
Cc1ccc(Cc2c(-c3ccccc3)nc3cc(C)c(Br)c(C)n23)cc1	6501
CCOC1=C2[C@@H](CN(S(=O)(=O)c3ccc(C)cc3)[C@H]2c2ccc(CC)cc2)[C@H]2C(=O)N(c3ccccc3)C(=O)[C@H]2C1	5764
OC(c1ccc(F)c(F)c1)c1ncc(-c2ccc(Cl)cc2)[nH]1 (centres undefined)	2852
CC(C)CN(C(=O)COC(=O)C12CC3CC(CC(O)(C3)C1)C2)c1c(N)n(Cc2ccccc2)c(=O)[nH]c1=O	3094
Cc1ccc(OC2CCN(C(=O)[C@H]3O[C@@H](n4ccc(N)nc4=O)[C@H](O)[C@@H]3O)CC2)cc1	5430
Nc1nc2cc(Cl)ccc2n1N	6286
COC(=O)[C@@]1(Cc2ccc(F)cc2)[C@H]2c3cc(C(=O)N(C)C)n(Cc4ccsc4Br)c3C[C@H]2CN1C(=O)c1ccccc1	9491
COc1cc(CNC(=O)Nc2nc(C(N)CCc3ccccc3)cs2)cc(OC)c1OC (centres undefined)	2766
C[C@H]1CN([C@@H](C)CO)C(=O)CCCn2nncc2CO[C@@H]1CN(C)Cc1ccc(C(F)(F)F)cc1	3572
SMILES	Autofluor counter
CCN(CC)c1ncnc2c1ncn2[C@H]1CN(Cc2ccc(OC)cc2)C[C@@H](CO)O1	2815
OCCNc1ncnc2c1nnn2Cc1ccccc1Cl	3046
CCCCCCn1c(=O)n2n(c1=O)C[C@]1(OC(=O)NCc3ccc(OC)c(OC)c3)CN(S(=O)(=O)c3ccc(C)cc3)C[C@]1(O)C2	3529
CC(O)(c1cccnc1)c1nc(-c2cc(F)cc(F)c2)cs1 (centres undefined)	3578
CC(C)NC(=O)C1(C)CCN1C(=O)C1(c2ccccc2)CCCC1 (centres undefined)	3776
O=C1C=C(c2ccccc2Oc2ccccc2)C[C@@H](c2ccc(F)cc2)C1	3729
COc1cccc(N2CCN(C(=O)c3ccc(OC)c(S(=O)(=O)NC4CC4)c3)CC2)c1	3841
Nc1[nH]c(C(=O)c2ccccc2)c(-c2cccnc2)c1C(=O)NCCc1ccc(Cl)cc1Cl	6282
O=C(COC(=O)Cc1ccc(Cl)cc1)NCc1ccc(Cl)cc1	3118
COc1cc2oc(=O)cc(CN3CCN(c4ccccc4F)CC3)c2cc1Cl	4512
CC(C)C[C@H]1CNC(=S)N1C[C@H]1CCCN1C[C@H](Cc1ccc(O)cc1)N1C[C@H](Cc2ccc(O)cc2)N(CC2CCCCC2)C1=S	6523
O=C(COC(=O)c1cccc(S(=O)(=O)N2CCOCC2)c1)NC1CCCCC1	3425
CCCS(=O)(=O)NC(=O)C1(C)CCCN(C(=O)c2ccc(F)c(Cl)c2)C1 (centres undefined)	3818
O=C(Nc1ccc2c(c1)OCCO2)c1ccccc1Cl	3791
O=C(O)C(=Cc1ccccc1[N+](=O)[O-])c1ccc2c(c1)OCO2	3900
C[C@H]1CN([C@@H](C)CO)C(=O)CCCn2nncc2CO[C@@H]1CN(C)C(=O)c1ccc2ccn(C)c2c1	3040
COc1ccc(-c2ccc(CN3C(CC(C)C)C(=O)N(Cc4cn(CC5CCCCC5)nn4)CCS3(=O)=O)cc2)cc1OC (centres undefined)	3594
COc1cccc(C(O)c2nc(-c3ccc(F)cc3OC)cs2)c1 (centres undefined)	3962
CC1(C(=O)NS(=O)(=O)c2ccccc2Cl)CCN1C(=O)CC1CCCC1 (centres undefined)	3947
Nc1nc(=O)n(C2CC(O)C(CO)O2)cc1Cl (centres undefined)	5276
CCCc1nc2c(C)cc(Br)cn2c1Cc1ccc(OC)cc1C	5762
CC(C)(C)OC(=O)N1CCC[C@H]1C(=O)NCc1ccc(F)cc1F	5959
CN(C)c1cccc(NC(=O)C2Cc3c(-c4ccccc4Oc4ccccc4)ccnc3O2)c1 (centres undefined)	2994
CC1(C(=O)NS(=O)(=O)c2cccc(OC(F)F)c2)CCN1C(=O)C1CC1 (centres undefined)	3662
CCc1nc2c(OCc3cc(Cl)cc(Cl)c3)cccn2c1N(C)C(=O)Nc1ccccc1OC	4047
SMILES	Autofluor counter
Cc1cc(F)ccc1C(O)c1ncc(-c2ccccc2Cl)[nH]1 (centres undefined)	3920
CNc1cccc(-c2ccccc2C(C)=O)n1	3705
CCCCOCCCNC(=O)C[C@@H]1C[C@@]2(C(=O)OCC)CCC=C2N(Cc2cccc3ccccc23)C1=O	5965
CC(C)C[C@H]1CNC(=O)C(=O)N1C[C@@H]1CCCN1C[C@H](CC(C)C)N1C[C@H](Cc2ccc(O)cc2)N(CCc2ccccc2)C(=O)C1=O	4931
C[C@H]1CN([C@@H](C)CO)S(=O)(=O)c2ccc(Br)cc2O[C@H]1CN(C)C(=O)Nc1ccccc1F	3717
CCNC(=O)Nc1ccc2c(c1)c(=O)n(C)n2Cc1ccc(Cl)cc1	3870
Cc1ccc(NC(=O)COc2ccccc2)cc1S(=O)(=O)N1CCCCC1	3658
CCc1nc2c(OCc3ccccc3)cccn2c1N(C)C(=O)c1ccco1	2956
CCOC(=O)[C@]12CCC=C1N(Cc1ccc(Cl)cc1Cl)C(=O)[C@H](CC(=O)N1CCSCC1)C2	4479
CC1(C(=O)NS(=O)(=O)C2CC2)CCN(C(=O)c2ccc(F)cc2Cl)C1 (centres undefined)	3009
CCOC(=O)C1(C)CCN1C(=O)c1ccc(C#N)cc1 (centres undefined)	3594
CCOC(=O)C1=C[C@@H](C(C)(C)C)N(S(=O)(=O)c2ccc(C)cc2)[C@H]1c1ccc(OC)cc1	4314
C#CCN(C[C@@H]1[C@@H](OC(=O)NCCCCCC)[C@@H](OC(=O)NCCCCCC)Cn2c(=O)n(CCCCCC)c(=O)n21)S(=O)(=O)c1ccc(C)cc1	4306
O=P1(c2ccccc2)CC=CC1	6166
CNC(=O)C1(c2ccccc2)CCCCC1	3358
CNC[C@@H]1Oc2cc(Br)ccc2S(=O)(=O)N([C@H](C)CO)C[C@H]1C	3597
COCOCCn1cc(CN2CCS(=O)(=O)N(Cc3ccc(-c4ccc(Cl)cc4)cc3)C(CC(C)C)C2=O)nn1 (centres undefined)	3510
Cc1ccccc1C(=O)NCCN1CCC(n2c(=O)[nH]c3ccccc32)CC1	6098
COc1ccc(C(=O)NC[C@H]2O[C@@H](n3cnc4c(N)ncnc43)[C@H](O)[C@@H]2O)cc1OC	4185
O=C1OCCOC2CCCc3oc(C4=CCCCC4)c1c32 (centres undefined)	5286
CN(Cc1ccccc1)C(=O)CN1CCN(S(=O)(=O)c2ccccc2F)CC1	3524
CCCCC[C@H]1CCCCC[C@H](O)C[C@H](O)[C@@H](O)/C=C/C(=O)O1	6310
CC1(C(=O)NCc2ccc3c(c2)OCO3)CCN1C(=O)CCc1ccc(Cl)cc1Cl (centres undefined)	3571
COc1ccc(-c2nc3ccc(Br)cn3c2CC(=O)N2CCCC2)cc1OC	5904
COCCNc1ncnc2c1ncn2[C@H]1CN(CCN2CCOCC2)C[C@@H](CO)O1	3589
SMILES	Autofluor counter
Cc1ccc(-c2nc3ccc(C)cn3c2Cc2ccsc2)cc1	5492
CC1(C(=O)NCc2cccs2)Cc2c(-c3ccc4c(c3)OCO4)ccnc2O1 (centres undefined)	3800
C[C@H]1CN([C@@H](C)CO)C(=O)CCCn2nncc2CO[C@H]1CN(C)C(=O)CCC(F)(F)F	3528
O=Cc1ccc(-c2c(-c3ccccc3)oc3c2C(OCCCCO)CCC3)o1 (centres undefined)	4262
CC(C)NC(=O)C1(C)CCN1C(=O)C1(c2ccccc2)CC1 (centres undefined)	3968
COc1ccc(S(=O)(=O)N(C)C[C@@H]2OCc3cn(nn3)CCCC(=O)N([C@@H](C)CO)C[C@H]2C)cc1	3537
O=CNc1cc(-c2ccc(C(=O)NC3CC3)cc2)cn2c(-c3ccc(F)c(Cl)c3)cnc12	4005
O=c1cc(CCc2ccccc2)[nH]c(=O)[nH]1	6260
CCCc1nc2c3ccccc3ccn2c1CC(C)(C)C	5715
CCNC(=O)C1(C)CCCN(C(=O)c2cc3ccccc3s2)C1 (centres undefined)	3639
COc1cccc(CNC(=O)[C@@H]2CCCN2)c1	6150
Cc1ccc2nc(-c3ccco3)c(CC(C)(C)C)n2c1	4549

Screening data: PubChem, NMMLSC
